Calb FLC: C. albicans growth modulation with fluconazole; C. albicans CaCi-2 (fluconazole-resistant clinical isolate) + fluconazole, Alamar Blue growth, 48 h; growth inhibition, % (concentration not given with the values); 0.57% of 300,000 active; AID 1979;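 active means most replicates above 75%; inconclusive means exactly half above 75%; inactive means most below 75%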;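 further: all wells also contain fluconazole at 8 µg/ml as a sub-toxic cotreatment; 0% = median of DMSO wells and 100% = median of geldanamycin control wells; wells of about 8 µL received 7.5 nL stock; the first replicate is given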
ALR H2O2 inh: blocks human ALR sulfhydryl oxidase activity | P55789 | purified ALR, DTT oxidation, H2O2 HRP-luminol luminescence | inhibition, % (no concentration beside the values) | 3.8% of 290,000 active;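 active means mean and each replicate at 75% or more; inconclusive means only one of the two met; inactive means neither met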;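 further: stock transfer was 7.5 nL into about 7.5 µL; 0% = neutral wells and 100% = wells with inactivated enzyme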
Target sequence (P55789 whole entry, looked up): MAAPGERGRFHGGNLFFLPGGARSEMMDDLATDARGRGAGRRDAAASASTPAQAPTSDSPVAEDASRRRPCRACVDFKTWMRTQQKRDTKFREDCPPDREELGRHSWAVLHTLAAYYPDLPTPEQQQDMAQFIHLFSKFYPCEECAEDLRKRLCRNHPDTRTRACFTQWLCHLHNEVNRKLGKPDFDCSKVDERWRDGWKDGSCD
T cruzi repl: blocks replication of Trypanosoma cruzi. T. cruzi beta-gal in NIH3T3, luminescence, 90 h. inhibition, % (test concentration not listed). 1.4% of 300,000 active;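 active means mean inhibition across valid replicates above about 55%, limit read from the data; inconclusive means mean below that limit but half or more replicates reach it; inactive means mean below it, under half of replicates reach it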;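 further: signal also drops with host cell toxicity which is not excluded here; 0% = plate median of DMSO wells and 100% = zero luminescence signal; higher percent means less beta-gal luminescence so fewer parasites; stock transfer was 50 nL into about 50 µL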
rRNA inh HTS: inhibitors of bacterial rRNA selective over humanized ribosomes | E. coli WT GFP vs humanized-ribosome RFP mutants, fluorescence, 24 h; stronger effect = lower value; DMSO median 0, no signal -100 | GFP signal change (wild-type ribosome), % (test concentration not listed) | 1.6% of 350,000 active | AID 720706;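 active means significant combined selectivity score with lowered wild-type GFP, culture density cut under 30%, mutant RFP and density less affected; inactive means any of these conditions unmet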; further: one replicate is shown; some compounds called inactive have numbers as strong as hits
Beta apoptosis: blocks beta cell apoptosis. 0.8% of 300,000 active. protection from apoptosis, % (test concentration not listed). INS-1E cytokine-induced death, ATP luminescence, 48 h; percent of positive-control rescue, neutral wells zero. AID 435005;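 active means all replicates at 75% or more, or half of them and the mean; inconclusive means half reach 75% but not the mean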;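 further: 0% = cytokine-treated negative control wells and 100% = positive control rescue; higher means more ATP so stronger rescue from cytokine killing; wells of about 40 µL received 100 nL stock; the first replicate is given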
RanGTP-Impb inh: inhibitors of RanGTP-importin-beta interaction, primary screen, biochemical, FRET, CFP-Ran, YFP-importin-beta, homogeneous | cell-free CFP-Ran/YFP-importin-beta FRET ratio | inhibition, % (no concentration beside the values) | 1.1% of 300,000 active;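 active means most replicates above 15%; inconclusive means exactly half above 15%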;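 further: 0% = DMSO wells and 100% = Ran loaded with GDP instead of GTP; wells of about 40 µL received 100 nL stock; the first replicate is given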
MLL AF4-AF9 inh: blocks AF4 peptide binding to human AF9; P42568; AlphaScreen, biotin-AF4 peptide binding to FLAG-AF9; inhibition, % at 10 µM; 0.47% of 350,000 active; AID 651704;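 active means every replicate reaching a set inhibition limit, whatever the replicate mean, cut at about 25% in these data; inconclusive means mean inhibition reaches that limit but some replicates miss it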;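 further: 0% = plate neutral control median and 100% = total signal loss; the record names both 10 and 1 µM as test concentration; the first replicate is given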
Target sequence (P42568 whole entry, looked up): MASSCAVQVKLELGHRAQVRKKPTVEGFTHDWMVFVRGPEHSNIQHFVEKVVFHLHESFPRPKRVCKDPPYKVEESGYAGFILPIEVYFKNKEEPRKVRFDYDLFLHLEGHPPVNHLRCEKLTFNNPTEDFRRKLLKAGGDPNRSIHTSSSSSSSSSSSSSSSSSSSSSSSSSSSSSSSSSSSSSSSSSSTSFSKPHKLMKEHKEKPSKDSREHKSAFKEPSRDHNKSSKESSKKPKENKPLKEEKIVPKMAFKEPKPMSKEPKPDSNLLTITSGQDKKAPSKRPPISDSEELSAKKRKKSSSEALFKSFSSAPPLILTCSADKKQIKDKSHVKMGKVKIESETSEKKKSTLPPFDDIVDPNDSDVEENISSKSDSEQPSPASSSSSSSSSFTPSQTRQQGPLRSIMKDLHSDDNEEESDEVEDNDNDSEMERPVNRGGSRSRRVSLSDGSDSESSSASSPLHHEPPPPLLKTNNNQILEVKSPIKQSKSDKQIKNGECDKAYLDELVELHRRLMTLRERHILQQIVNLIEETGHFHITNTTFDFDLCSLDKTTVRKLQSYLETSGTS
FGF22 binding: FGF22 (human) thermal shift binding; Q9HCT0; recombinant FGF22 thermal shift, SYPRO orange fluorescence; percent of sucrose octasulfate shift, DMSO zero; calls only at 9.99 µM; 1.5% of 340,000 active; AID 651658;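 active means melting point raised past a set limit in the mean and every replicate; inconclusive means no clear call; three in four hits are not shown here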
Target sequence (Q9HCT0 whole entry, looked up): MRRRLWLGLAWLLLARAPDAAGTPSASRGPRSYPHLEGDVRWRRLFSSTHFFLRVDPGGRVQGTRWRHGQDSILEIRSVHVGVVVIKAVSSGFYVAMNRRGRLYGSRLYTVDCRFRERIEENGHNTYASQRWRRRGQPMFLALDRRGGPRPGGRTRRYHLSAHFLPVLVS
rRNA inh HTS OD600: further read-out of rRNA inh HTS, marked with its call; OD600 change, %; measured here: OD600 growth;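 optical density of the mix in the first replicate; 0 = DMSO median and -100 = no signal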
rRNA inh HTS RFP: further read-out of rRNA inh HTS, marked with its call; RFP signal change, %; measured here: RFP humanized mutant strains;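 first replicate; 0 = DMSO median and -100 = no signal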
An asterisk follows results filed as active; i = inactive; ? = inconclusive; · = no result given. Only part of the results is shown, so the mix of outcomes need not match the whole.

SMILES	Calb FLC	ALR H2O2 inh	T cruzi repl	rRNA inh HTS	rRNA inh HTS OD600	rRNA inh HTS RFP	Beta apoptosis	RanGTP-Impb inh	MLL AF4-AF9 inh	FGF22 binding
O=c1[nH]c2cccc(F)c2n2cccc12	-1	·	3	5	10	-1.5	3	-3.2	-3.9	i
C=C(C)Cn1c(CCNC(=O)CC)nc2ccccc21	-2	·	6	·	·	·	-1	5.1	·	·
COc1ccc(-c2noc(CCCC(=O)NCCc3ccccc3)n2)cc1OC	38	-26	-2	·	·	·	-3	6.3	·	·
CCOP(=O)(/C(C#N)=C(\C)O)c1ccccc1 (centres undefined)	-24	-1	-9	22	17	-3.7	-17	·	1.0	i
COC(=O)C1=C(Nc2ccccc2NC(=O)c2ccccc2C(=O)O)CSC1	-11	·	-19	9	-14	5.6	·	0.3	·	i
CCOC(=O)N1CCN(C(=O)C(NC(=O)c2ccc(C(C)(C)C)cc2)C(C)C)CC1 (centres undefined)	·	-27	·	4	-8	2.5	-1	·	12	i
Cc1ccc(NC(=O)Nc2cccn(Cc3c(F)cccc3Cl)c2=O)cc1	-8	-21	26	5	5	0.9	3	9.5	-0.5	i
O=c1cc(-c2cccc(Cl)c2)oc2cccc(O)c12	1	0	-4	2	12	6.9	2	-2.8	3.7	i
CCOc1ccc(S(=O)(=O)N2CCCC(C(=O)Nc3cccc(C)c3)C2)cc1 (centres undefined)	5	1	4	1	3	-1.3	-11	3.2	-5.4	i
COc1ccc(S(=O)(=O)N2CCN(c3ccccc3)CC2)cc1C(=O)N1CCCC1	25	22	16	9	2	2.6	3	8.6	-3.7	i
Cc1ccc(C)c(C(C)NC(=O)C2C3CCC(O3)C2C(=O)O)c1 (centres undefined)	-9	-11	-10	·	·	·	2	3.7	·	·
O=C(/C=C/c1ccc(Cl)cc1Cl)Nc1ccncc1	-6	-6	-4	·	·	·	4	-1.8	·	·
CCOC(=O)N1CCN(C(=S)NC(=O)c2ccc(Br)cc2)CC1	-6	-43	-16	2	-2	-0.1	-8	-2.2	-0.5	i
CCc1ccc2[nH]cc(C(=O)OCCOC)c(=O)c2c1	5	-12	1	·	·	·	-7	-3.8	·	·
C/C(=N\Nc1cccc(Cl)c1)C1(C)N(O)C(C)(C)C(c2ccco2)=[N+]1[O-] (centres undefined)	-11	22	37	-17	-14	1.9	7	0.1	6.0	i
CCOC(=O)c1oc2ccccc2c1NC(=O)c1cccc(OC)c1OC	3	3	18	·	·	·	-1	-3.6	·	·
COc1ccc(/C=C(/NC(=O)c2ccc(C)cc2)C(=O)NCc2ccncc2)cc1	2	-3	3	-1	8	-1.9	-5	1.8	1.9	i
O=S(=O)(c1ccc(OCC(O)CN2CCc3ccccc3C2)cc1)N1CCOCC1 (centres undefined)	-10	5	11	·	·	·	1	1.5	·	·
CCOC(=O)C1(Cc2ccc(OC)cc2)CCN(C(=O)Cc2cccnc2)CC1	32	-17	-3	-2	-5	-3.0	-4	6.1	1.9	i
Cc1onc(-c2ccccc2)c1C(=O)N1CCN(C/C=C/c2ccccc2)CC1	-2	-22	18	-11	-26	-0.2	-2	-2.2	-0.4	i
CCc1cccc(C)c1NC(=O)COC(=O)CNC(=O)c1cccs1	1	·	-15	-3	5	-3.8	-5	0.1	-1.8	i
Cc1ccc(-c2cnc(N)n2C)cc1C	18	-4	2	·	·	·	12	0.1	·	·
CCOC(=O)NC(=O)COC(=O)CCCSc1nc2ccccc2s1	?	93*	-11	-27*	-8.9*	-0.7*	-8	-1.7	2.8	i
O=C(Nc1ccc2c(c1)OCO2)C1CC(=O)N(c2cccc(Cl)c2)C1 (centres undefined)	-12	-27	-3	3	4	-3.7	·	?	-0.7	i
FC(F)(F)C1=CC(c2ccc(Cl)cc2)=NCCN1	-3	99*	·	·	·	·	-3	-2.5	·	·
CC(=O)N1CCN(CC(O)COc2ccc(OCc3ccccc3)cc2)CC1 (centres undefined)	8	1	-5	6	2	-2.7	0	0.1	-27	i
Cc1c(NC(=O)CSc2nc(-c3ccco3)cc(C(F)(F)F)n2)c(=O)n(-c2ccccc2)n1C	3	·	9	·	·	·	7	2.6	·	·
COCCCn1c2nc3ccccc3nc2c2c(=O)n(Cc3ccc(Cl)cc3)cnc21	-3	-3	23	1	-2	-0.1	12	3.7	·	·
Nc1ccc2nc(N3CCOCC3)sc2c1	12	99*	76*	7	0	1.2	15	0.3	4.7	i
CC(=O)c1ccc(-c2ccc(C(=O)NCC3CCCO3)o2)cc1 (centres undefined)	5	·	-6	0	1	0.6	-4	1.9	-4.4	i
O=C1Nc2cc(Br)ccc2C1(O)c1ccccc1O (centres undefined)	-3	·	-6	8	5	1.2	-1	1.6	-0.2	i
CCn1cnc2scc(-c3ccc(OC)cc3)c2c1=O	19	1	-5	-7	-10	-0.1	-10	0.0	-2.7	i
NS(=O)(=O)c1ccc(NC(=O)Nc2cccc3ccccc23)cc1	2	-5	-5	17	14	2.7	-5	2.2	-3.7	i
NC(=NCCc1c[nH]c2ccccc12)NS(=O)(=O)c1ccc2ccccc2c1	-10	4	-9	·	·	·	·	-3.3	·	·
O=[N+]([O-])c1ccccc1-c1cc(-c2cc(Cl)ccc2O)n[nH]1	36	99*	-16	·	·	·	1	1.8	·	·
COc1ccc(C2=NOC(Cn3nc(-c4ccccc4)cc3C(=O)NCc3cccs3)C2)cc1 (centres undefined)	·	-10	·	2	18	-4.0	-6	·	2.0	i
O=C(Cn1c(=O)n(CC2CCCO2)c(=O)c2ccccc21)c1ccccc1 (centres undefined)	13	·	-4	·	·	·	-1	0.0	·	·
C/C(=N\NC(=S)NC(C)C)c1ccccc1OC(F)F	-24	52	7	-7	-18	1.1	2	2.7	6.1	i
Cn1nc(C(=O)Nc2ccc(S(=O)(=O)N3CCOCC3)cc2)c2ccccc2c1=O	-14	·	-9	21	24	4.3	0	-0.6	0.0	i
O=C(NNC(=S)Nc1ccc(F)cc1F)c1ccco1	-29	33	-7	3	10	0.5	0	6.8	-1.3	i
Cc1ccccc1-c1nc(C#N)c(NCc2ccco2)o1	11	·	7	0	3	-1.2	-2	-0.8	-2.9	i
Cc1ccc(-c2nn(-c3ccccc3)cc2CN(Cc2ccccc2)C(=O)CCC(=O)O)o1	28	98*	-5	-12	-8	5.0	-2	1.8	·	·
O=C(O)COc1c(Cl)cc(/C=C2\NC(=O)NC2=O)cc1Br	18	0	-2	18	7	2.7	-2	0.8	1.0	i
CN(C(=O)Nc1ccc(S(=O)(=O)N(C)C)cc1)C1CCCCC1	-2	-2	-3	·	·	·	-2	-1.8	·	·
Cc1cccc(NC(=O)c2ccccc2NC(=O)C(C)(C)C)n1	2	-13	6	·	·	·	-10	-5.5	·	·

Reprinted from the results shown (9 entries):
SMILES	Calb FLC	ALR H2O2 inh	T cruzi repl	rRNA inh HTS	rRNA inh HTS OD600	rRNA inh HTS RFP	Beta apoptosis	RanGTP-Impb inh	MLL AF4-AF9 inh	FGF22 binding
O=C1Nc2cc(Br)ccc2C1(O)c1ccccc1O (centres undefined)	-3	·	-6	8	5	1.2	-1	1.6	-0.2	i
CCn1cnc2scc(-c3ccc(OC)cc3)c2c1=O	19	1	-5	-7	-10	-0.1	-10	0.0	-2.7	i
NS(=O)(=O)c1ccc(NC(=O)Nc2cccc3ccccc23)cc1	2	-5	-5	17	14	2.7	-5	2.2	-3.7	i
NC(=NCCc1c[nH]c2ccccc12)NS(=O)(=O)c1ccc2ccccc2c1	-10	4	-9	·	·	·	·	-3.3	·	·
O=[N+]([O-])c1ccccc1-c1cc(-c2cc(Cl)ccc2O)n[nH]1	36	99*	-16	·	·	·	1	1.8	·	·
COc1ccc(C2=NOC(Cn3nc(-c4ccccc4)cc3C(=O)NCc3cccs3)C2)cc1 (centres undefined)	·	-10	·	2	18	-4.0	-6	·	2.0	i
O=C(Cn1c(=O)n(CC2CCCO2)c(=O)c2ccccc21)c1ccccc1 (centres undefined)	13	·	-4	·	·	·	-1	0.0	·	·
C/C(=N\NC(=S)NC(C)C)c1ccccc1OC(F)F	-24	52	7	-7	-18	1.1	2	2.7	6.1	i
Cn1nc(C(=O)Nc2ccc(S(=O)(=O)N3CCOCC3)cc2)c2ccccc2c1=O	-14	·	-9	21	24	4.3	0	-0.6	0.0	i

Carrying on.
SMILES	Calb FLC	ALR H2O2 inh	T cruzi repl	rRNA inh HTS	rRNA inh HTS OD600	rRNA inh HTS RFP	Beta apoptosis	RanGTP-Impb inh	MLL AF4-AF9 inh	FGF22 binding
O=C(Cc1ccccc1)Nc1ccccc1N1CCOCC1	-4	·	-1	·	·	·	4	-3.9	·	·
CCN(CC)S(=O)(=O)c1ccc(NC(=O)C(OC)c2ccccc2)cc1 (centres undefined)	-10	-4	-9	·	·	·	-2	0.5	·	·
COC(=O)c1sccc1NC(=S)N1CCC(C(N)=O)CC1	-1	-3	-7	-1	4	6.0	0	0.5	2.1	i
CCCC(=O)NC(c1ccc(C)cc1)c1ccc2cccnc2c1O (centres undefined)	86*	·	72*	·	·	·	112*	-2.3	·	·
Cc1ccc(C(=O)OCC(=O)NCc2ccco2)cc1S(=O)(=O)N1CCOCC1	5	0	-7	4	6	-0.2	-2	-1.3	0.3	i
CCN1C(=O)/C(=C2/SC(C)=C(C)N2CC)SC1=S	54	97*	7	·	·	·	9	?	·	·
O=C(NCc1cccnc1)c1cc(-c2ccc(Cl)cc2)oc1C(F)(F)F	0	·	14	-13	-12	-1.2	3	8.0	·	i
O=C(CCNC(=O)c1ccccc1Cl)Nc1ccc(S(=O)(=O)Nc2ncccn2)cc1	-6	-6	-12	17	6	-0.2	-4	3.8	-10	i
Cc1cc(=O)c(C(=O)O)nn1-c1ccccc1F	4	-23	7	12	15	-1.7	-10	-6.7	-3.4	i
CCC(=O)N1CCCC(C(=O)c2ccc(-c3ccccc3)cc2)C1 (centres undefined)	-4	-3	-6	-32	-62	-2.6	·	-1.1	-1.8	i
O=C(/C=C/c1ccccc1)NC(=S)Nc1ccc(N2CCOCC2)cc1	5	-11	-24	·	·	·	-2	0.6	·	·
Cc1nc(C(=O)O)nn1-c1cc(Cl)ccc1Cl	-17	-11	-11	0	1	-3.4	6	6.1	0.8	i
COc1ccc(N(C(=O)c2snc(C(N)=O)c2N)C(C(=O)NC2CCCC2)c2ccc(C)o2)c(OC)c1 (centres undefined)	17	·	17	-2	-11	8.9	1	-1.9	1.2	i
Cc1ccc(CN2CCNC(=O)C2CC(=O)NC2CCCCCC2)cc1 (centres undefined)	-4	1	11	-5	-7	3.1	-4	3.8	2.9	i
S=C(Nc1ccccc1Oc1ccccc1)Nc1cccc(Cl)c1Cl	6	18	-19	·	·	·	-5	2.6	·	·
NS(=O)(=O)c1ccc(CCNC(=O)NC2(C(F)(F)F)Oc3ccccc3O2)cc1	-4	-9	2	·	·	·	-2	1.3	·	·
O=[N+]([O-])c1ccc(Cc2ccncc2)cc1	13	-9	-18	8	-4	-0.3	-3	4.3	-2.0	i
